Compound activity from PubChem BioAssay.
HPGD block: HPGD (human) dehydrogenase inhibition; P15428; purified HPGD, NADH fluorescence kinetic, PGE2 substrate; Potency, µM, without a hit: top-dose activity change, negative = inhibition, hits mostly inhibitors; 150,000 tested, 4.3% active; AID 894; active = well fitted inhibition curve with a large enough effect (not every such curve was filed as active); inconclusive = small, poorly fitted or top-dose-only effect, or another doubt; inactive = no such curve, though single readings can be large or run the other way;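 further: top concentration of the series not given in the record; plate controls included wells without enzyme; inactives centre near -10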
Target sequence (P15428 whole entry, looked up): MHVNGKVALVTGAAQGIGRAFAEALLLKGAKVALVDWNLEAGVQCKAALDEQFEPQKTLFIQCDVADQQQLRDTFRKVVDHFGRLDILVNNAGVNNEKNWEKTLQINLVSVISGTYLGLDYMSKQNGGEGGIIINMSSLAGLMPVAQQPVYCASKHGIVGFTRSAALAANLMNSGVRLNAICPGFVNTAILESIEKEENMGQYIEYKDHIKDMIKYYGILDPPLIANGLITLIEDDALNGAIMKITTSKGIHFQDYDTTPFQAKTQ
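20 nM HPGD preincubated 15 min at room temperature with compound in 50 mM Tris-HCl pH 8, 0.01% Tween 20. Started with 1 mM NAD+ and 30 uM prostaglandin E2; NADH fluorescence (360/450 nm) read 5 times over 30-s intervals, last minus first.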
The depositor's hits bear a star; ? = inconclusive. On the % scale 0 is the no-effect control and ±100 the full control effect; potency means the concentration at half of the fitted maximal effect. An excerpt; rates above refer to the full screens.

Structure	HPGD block
COC(=O)c1sc2ccccc2c1NC(=O)c1ccc(S(=O)(=O)N2CCCCC2C)cc1 (centres undefined)	-29%
Cn1c(Cl)c(/C=N/OC(=O)c2ccccc2Cl)c2ccccc21	-21%
CSc1ncccc1C(=O)OCn1nnc2ccccc2c1=O	-17%
CC(OC(=O)C1=Cc2ccccc2OC1)C(=O)NC1CCCC1 (centres undefined)	-23%
O=C(C1CCN(Cc2ccccc2)CC1)N1CCCC1	-11%
CCOc1ccc(NC(=O)N2CCC(NC(=O)C(Cc3ccc(OC)c(OC)c3)NC(C)=O)CC2)cc1 (centres undefined)	3%
Cc1cc(C(=O)N2CCN(c3ccc([N+](=O)[O-])cc3)CC2)no1	-1%
CN1C(=O)CSc2ccc(NC(=O)N3CCN(c4ccccn4)CC3)cc21	-17%
COC/C=C/C1=CC2=CC(=O)C(C)(OC(=O)c3cnc4ccccc4n3)C(=O)C2=CN1CCN1CCOCC1 (centres undefined)	-3%
Cc1ccsc1/C=N/NC(=O)CN1CCN(S(=O)(=O)c2ccc(Br)cc2)CC1	0%
CCc1ccc(NC(=O)/C(C#N)=C/c2cc3ccc(C)cc3nc2N2CCOCC2)cc1	-7%
N#Cc1c(-c2ccc(F)cc2)noc1N	-8%
S=C(Nc1ccc(Br)cc1)NC1CCCCC1	-9%
COC(=O)Cc1[nH]nc2c1C1(C(=O)N(Cc3ccccc3)c3ccccc31)C(C#N)=C(N)O2 (centres undefined)	-1%
COCc1nnc(NS(=O)(=O)c2ccc(C)cc2)s1	4%
COc1ccc(C2N(c3ccc(F)cc3)C(=O)C3CCCN32)cc1 (centres undefined)	-12%
CN(C)c1ccc(CN(C)C2CCCCC2)cc1	-1%
Cc1nc(CSc2ccc(Cl)cc2)cc(NCc2ccccc2)n1	-13%
CC1=C(C(=O)OC(C)C)C(c2ccncc2)n2ncnc2N1 (centres undefined)	-18%
O=C(NCc1ccc2c(c1)OCO2)C1CCN(C(=O)Nc2ccc(Cl)cc2)CC1	0%
COC(=O)CCC(=O)Nc1cccc2ccccc12	-4%
COc1ccc(S(=O)(=O)N2CCC(C(=O)NCCC3=CCCCC3)CC2)cc1OC	-7%
COc1ccc(S(=O)(=O)N2CCCC(C(=O)N3CCCCCC3)C2)cc1 (centres undefined)	-7%
Cc1ccc(C)c(NC(=S)NCCSc2ccc(Cl)cc2)c1	-16%
C=CCOc1ccc(C2c3c(oc4ccccc4c3=O)C(=O)N2CCCN2CCOCC2)cc1 (centres undefined)	-8%

Given with each value named: 2 of the compounds above.
COCc1nnc(NS(=O)(=O)c2ccc(C)cc2)s1
- HPGD block = 4%
CC1=C(C(=O)OC(C)C)C(c2ccncc2)n2ncnc2N1 (centres undefined)
- HPGD block = -18%

New compounds follow.
Structure	HPGD block
O=C(c1cc(-c2ccc(Cl)cc2Cl)on1)N1CCN(C(=O)c2ccco2)CC1	10µM*
COc1ccc(C)cc1NC(=O)CCN1CCCC1	-5%
COc1ccc(-c2nc3cnc(OC)nc3n(Cc3cccc(OC)c3)c2=O)cc1	?
O=C(O)C1CCN(C(=O)c2ccccc2Cl)CC1	-2%
O=C(/C=C/c1ccc(Cl)cc1Cl)N(Cc1ccccc1)C1CCS(=O)(=O)C1 (centres undefined)	-1%
COc1ccccc1N1CCN(C(=O)CSc2nnc(NC(=O)C3CC3)s2)CC1	-7%
O=C(NCCOC(=O)c1ccc(Cl)c(S(=O)(=O)N2CCCCC2)c1)c1ccncc1	-9%
O=C(NCc1ccccc1)c1c[nH]c2cc3c(cc2c1=O)OCCO3	-9%
CC(C)(C)c1cc(NC(=O)c2cc(F)c(F)c(F)c2F)no1	-4%
c1ccc(CSc2nnc([C@@H]3CCCN3)o2)cc1	-19%
COc1cccc(N=Nc2c(=O)[nH]n3c(=O)cc(C)[nH]c23)c1	14µM*
Cc1ccc(NN=C2c3ccccc3-c3ccccc32)cc1	-29%
Cc1ccc2nc(-c3ccc(SCC(=O)O)nc3)[nH]c2c1	?
COC(=O)C1=C(Nc2ccc(C)cc2)C=C(C)C(C(=O)OC)C1c1ccc(OC)cc1 (centres undefined)	?
COc1ccc(C(=O)NNC(=O)C(NC(=O)c2ccccc2NC(=O)c2ccco2)C(C)C)cc1 (centres undefined)	-25%
CC(C)CCNC(=O)C1C2C=CC3(CN(Cc4ccccc4Cl)C(=O)C13)O2 (centres undefined)	4%
CCC(C)[C@H](NC(=O)NC1CCCc2ccccc21)C(=O)O (some centres undefined)	-6%
COc1cccc(OC)c1C(=O)Nc1ccc(CN2CCOCC2)cc1	-10%
CCCCC1=C(C(=O)OCC)C(C(=O)OCC)Oc2ccccc21 (centres undefined)	-14%
CC(=O)C1(C)CC2(CC(C)(C)OC2=O)C(=O)O1 (centres undefined)	-1%
CCOC(=O)C1=C(CSc2nc3c(cc2C#N)CN(C)CC3)OC(N)=C(C#N)C1c1ccncc1 (centres undefined)	-27%
COc1cc(C(=O)OCC(=O)c2cc(C)n(C)c2C)cc(OC)c1OC	-22%
Cc1c(C(=O)N2CCCC2)nnn1-c1nonc1N	-30%
CCCn1nc(C(=O)NC2CCCc3ccccc32)c2ccccc2c1=O (centres undefined)	-5%
Cc1ccc(-c2nn3c(-c4ccco4)nnc3c3ccccc23)cc1S(=O)(=O)NCC1CCCO1 (centres undefined)	-25%

Following part
Structure	HPGD block
CCC(C)Cn1c(C(C)O)nc2ccccc21 (centres undefined)	-8%
CCS(=O)(=O)Nc1cccc(-c2nc3cccnc3s2)c1C	?
CC(=O)c1ccc(S(=O)(=O)N2CCCC2)cc1	-6%
COc1ccc(Br)cc1CNc1ccc(S(N)(=O)=O)cc1	-2%
CC(=O)Nc1ccc(S(=O)(=O)N2CCC(n3cnc4cc(F)ccc43)CC2)cc1	-1%
Cc1ccc(CNC(=O)c2ccc(Br)o2)cc1	3.2µM*
CCCN1CCN(CCCNC(=O)CN2C(=O)COc3ccccc32)CC1	-6%
COc1ccc(/C=N/Nc2ncnc3sc(C)c(C)c23)cc1	-16%
COc1ccc(C(C(O)C(=O)c2c[nH]c3ccccc23)N2CCN(c3ccccc3)CC2)cc1 (centres undefined)	-11%
Cn1c(-c2ccc(Br)o2)nc2cc(Br)ccc21	-10%
O=C(c1ccccc1)N1CCN(C2CCCCCC2)CC1	-5%
CCOc1cc2[nH]c(=S)n(CCCC(=O)NCc3ccco3)c(=O)c2cc1OCC	-24%
CCOc1ccc(NC(=S)N(Cc2ccc(Cl)cc2)Cc2ccco2)cc1	-16%
COc1cc(OC)cc(C(=O)Nc2cc(NC(=O)c3ccco3)ccc2OC)c1	-19%
COC(=O)c1cc(-c2ccccc2)n[nH]1	-14%
O=C(Nc1cccc(N2CCCC2)c1)c1cccs1	-16%
CCN(CC)C1=CC(=O)OC12CCCCC2	35µM*
O=c1[nH]c(Cc2cccs2)nc2ccccc12	-25%
O=C(Nc1c2c(nn1-c1ccc(F)cc1)CS(=O)(=O)C2)C12CC3CC(CC(C3)C1)C2	-13%
COC(=O)c1c(NC(=O)CN2CCN(c3cccc(Cl)c3)CC2)sc(C)c1C	?
CCOc1ccc(-c2noc(=O)[nH]2)cc1	-7%
CC(NC(=O)OCc1ccccc1)C(=O)NCC1CCCO1 (centres undefined)	-18%
Brc1ccccc1-c1nnc2sc(Cc3ccccc3)nn12	16µM*
COc1ccccc1CNC(=O)c1cn(C)c(=O)c2cc(OC)c(OC)cc12	-21%
COC(=O)C1OC(=O)C2O[C@@]23[C@]2(C)C(OC(C)=O)CC4C(C)(C)C(=O)CC[C@]4(C)C2CC[C@@]13C (some centres undefined)	-2%

Other entries.
Structure	HPGD block
COC(=O)C(C)(C)ONC(=O)Nc1ccccc1	1%
O=C(CSc1nnc2c3ccccc3c3ccccc3c2n1)Nc1ccccc1	-10%
Nc1nc(SCc2nnc(SCC(=O)O)n2-c2ccccc2)nc2sc3c(c12)CCCC3	-26%
CC1=C(C(=O)OCc2ccccc2)C(/C=C/c2ccccc2)NC(=S)N1 (centres undefined)	-28%
COc1ccc(C)cc1Nc1cc(C)nc2nc(C)nn12	1.4µM*
COc1ccc(CN(C(=S)Nc2ccccc2)C2CC(=O)N(c3ccc(Cl)cc3)C2=O)cc1 (centres undefined)	-12%
N#Cc1cc2c(nc1SCC1COc3ccccc3O1)CCC2 (centres undefined)	25µM*
O=C1CN(c2ccc(Cl)cc2)C(=O)CN1NC(=S)Nc1ccc(Cl)cc1	1%
CC(=O)c1nc2ccccc2n1S(=O)(=O)c1ccc(C)cc1	?
COc1ccc(C)cc1C(=O)CCC(=O)Nc1ccccc1N1CCOCC1	-12%
O=C(O)CSCNC(=O)C12CC3CC(CC(C3)C1)C2	-7%
O=C(COc1ccccc1)Nc1cccc2c1CCCC2	-16%
CC(=O)N1CCc2cc(Br)cc(S(=O)(=O)N3CCN(c4ccccn4)CC3)c21	-3%
Cc1ccccc1OCCCC(=O)Nc1ccc2c(c1)OCO2	-21%
COc1cccc(N2C(=O)C(O)=C(C(C)=O)C2c2ccc(OC)c(OC)c2)c1 (centres undefined)	-20%
O=c1oc(-c2ccccc2NS(=O)(=O)c2ccccc2)nc2ccccc12	-11%
COC(=O)c1ccc(CNC(=O)CN(CCC(C)C)S(=O)(=O)c2ccc3c(c2)OCCO3)cc1	-14%
CC(=O)n1cc(C(C[N+](=O)[O-])SCCN)c2ccccc21 (centres undefined)	25µM*
Cc1ccc(C(=O)Nc2nnc(-c3ccncc3)s2)o1	-28%
CCN1CCN(CCNC(=O)C2CCN(Cc3nc(-c4ccc(Cl)cc4)oc3C)CC2)CC1	-7%
Cc1cc(C(=O)N/N=C/c2cccn2C)n[nH]1	-25%
Cc1ccccc1NC(=O)c1ccc(-c2ccc(Cl)cc2Cl)o1	?
S=C(Nc1ccc(Cl)cc1)NC1CC2CCCC(C1)N2C1CCCC1 (centres undefined)	-1%
O=C(Nc1ccccc1)C1CC(=O)n2ncnc2N1 (centres undefined)	-9%
CN(C)S(=O)(=O)c1ccc(N2C(=O)CC2(/C=C/c2ccccc2)C(=O)NC2CCCC2)cc1 (centres undefined)	-9%

The list continues.
Structure	HPGD block
COc1ccccc1NC(=O)c1cc2ccccc2o1	-8%
O=C(Nc1sc2c(c1-c1nc3ccccc3[nH]1)CCCC2)C1CC1	?
CCOC(=O)C1CCN(c2c(NCc3ccc(C(=O)NC4CCCC4)cc3)c(=O)c2=O)CC1	2µM*
Cc1onc(-c2c(F)cccc2Cl)c1C(=O)Nc1ccc(S(=O)(=O)Nc2ncccn2)cc1	-11%
CCOC(=O)N1CCN(C(=O)C(c2ccccc2)c2ccccc2)CC1	-9%
COc1ccc(C2CC(=O)Oc3cc(OC)c(OC)c(OC)c32)cc1 (centres undefined)	-8%
CCCCCCCC/C=C\CCCCCCCC(=O)NCC(=O)O	-4%
COc1ccc(-c2nc3n(n2)C(c2ccccc2)C2=C(CCCC2=O)N3)cc1OC (centres undefined)	-13%
CCOc1ccc(S(=O)(=O)NCCN2CCOCC2)c2ccccc12	-10%
Cc1nc2c(-c3ccc(F)cc3)c(C)nn2c(C)c1CCC(=O)N1CCN(c2ccccn2)CC1	26%
COc1ccccc1C(=O)NCCc1nc2ccccc2[nH]1	-11%
Cc1cc(C)cc(SCc2noc(C(=O)NCC3CCCO3)c2C(=O)O)c1 (centres undefined)	-19%
COc1ccc(C2C(C(=O)c3cccs3)=C(O)C(=O)N2c2nnc(C)s2)cc1OC (centres undefined)	-3%
CC(C)c1ccccc1N=C1SCCN1C1CCS(=O)(=O)C1 (centres undefined)	-2%
O=[N+]([O-])c1cc(S(=O)(=O)Nc2ccccc2)ccc1NCc1ccccc1	-12%
Cc1c(C(=O)Nc2cnccn2)oc2ccccc12	-16%
COc1cc(C2CC(=O)Nc3ccccc3S2)cc(OC)c1OC (centres undefined)	-5%
O=C(CC(c1ccccc1)c1ccccc1)NCCO	-10%
O=C(Nc1ccc(-c2noc(COc3ccccc3Cl)n2)cc1)c1ccco1	?
O=C(CSc1ccc2c(c1)OCCO2)Nc1cccc(S(=O)(=O)N2CCCCC2)c1	3%
Cn1cccc1C(=O)N1CCC2(CC1)CCN(c1ncccn1)CC2	-9%
O=C1CCCC2=C1C(c1cccs1)n1nc(SCc3ccccc3)nc1N2 (centres undefined)	?
Cc1nnc2sc(SCC(=O)Nc3nccs3)nn2c1=O	-15%
O=C(CC(C(=O)O)c1ccccc1)Nc1cccc2ccccc12 (centres undefined)	-2%
CC(/C=N/n1c(-c2ccco2)n[nH]c1=S)=C\c1ccco1	14µM*

Reformatted: results already given.
Cn1c(Cl)c(/C=N/OC(=O)c2ccccc2Cl)c2ccccc21
  HPGD block = -21%
CSc1ncccc1C(=O)OCn1nnc2ccccc2c1=O
  HPGD block = -17%
CC(OC(=O)C1=Cc2ccccc2OC1)C(=O)NC1CCCC1 (centres undefined)
  HPGD block = -23%
O=C(C1CCN(Cc2ccccc2)CC1)N1CCCC1
  HPGD block = -11%
